Source: PubChem BioAssay
TSHR ag – activates the human thyroid stimulating hormone receptor; P16473; HEK293-CNG-TSHR cells (CNG channel as cAMP sensor), membrane potential dye, cAMP; Potency, µM (top dose mostly 57.1 µM), inactives show at the top dose activation, hits mostly activators; 0.48% of 73,000 active; active = well fitted activation curve of enough size with the parental cells flat; inconclusive = any curve in the parental cells; inactive = parental cells flat and receptor cells flat or falling; note: % of control where 0% means no effect; weak receptor curves with flat parental cells got no call and are not listed
Target sequence (P16473 whole entry, looked up): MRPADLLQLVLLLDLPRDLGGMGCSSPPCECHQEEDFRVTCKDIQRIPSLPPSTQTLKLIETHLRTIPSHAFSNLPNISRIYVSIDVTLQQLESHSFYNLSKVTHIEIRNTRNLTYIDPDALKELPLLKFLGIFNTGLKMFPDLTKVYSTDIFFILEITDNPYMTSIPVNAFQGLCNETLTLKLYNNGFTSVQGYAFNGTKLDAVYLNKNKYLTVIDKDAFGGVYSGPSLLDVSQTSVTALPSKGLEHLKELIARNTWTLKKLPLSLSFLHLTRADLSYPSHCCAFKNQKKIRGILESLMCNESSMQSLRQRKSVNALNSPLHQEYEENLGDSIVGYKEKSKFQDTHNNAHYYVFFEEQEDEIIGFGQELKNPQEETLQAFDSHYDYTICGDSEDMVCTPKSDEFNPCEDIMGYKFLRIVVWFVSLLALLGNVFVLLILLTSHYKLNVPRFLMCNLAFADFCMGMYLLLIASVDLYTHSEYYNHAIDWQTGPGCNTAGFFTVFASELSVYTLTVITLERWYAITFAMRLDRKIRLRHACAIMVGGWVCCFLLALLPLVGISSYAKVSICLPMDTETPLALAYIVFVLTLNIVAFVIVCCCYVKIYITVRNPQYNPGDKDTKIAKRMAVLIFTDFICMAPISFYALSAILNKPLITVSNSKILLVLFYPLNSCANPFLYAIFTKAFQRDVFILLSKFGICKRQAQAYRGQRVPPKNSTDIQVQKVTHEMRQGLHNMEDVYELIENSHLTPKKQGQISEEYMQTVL
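HEK 293 cells stably expressing TSHR and a modified CNG channel, with CNG-only parental cells as counterscreen, were preloaded 60 min at room temperature with membrane potential dye containing 100 uM RO 20-1724. Compound exposure was 30 min, and depolarization was read as fluorescence at 590 nm.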
AID923 – qHTS Assay for Allosteric/Competitive Inhibitors of Caspase-1: Spectroscopic Profiling in AFC Spectral Region | 1.1% of 75,000 active | Potency, µM (highest dose often 57.5 µM), inactives show at the top dose fluorescence increase, most hits filed as activators | compound fluorescence, AFC spectral region (405/520 nm); almost no hit is shown here; active = well fitted activation curve with a large enough effect; inconclusive = small, poorly fitted or top-dose-only effect;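 note: 0% is about no effect; scaled to a free AFC standard on each plate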
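Baseline compound fluorescence (AFC region, 405 nm ex/520 nm em) taken from the intercept of kinetic reads with 50 nM caspase-1 and 5 uM Ac-WEHD-AFC; normalized to an on-plate AFC standard curve; compounds titrated up to 57 uM.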
An asterisk follows results filed as active; ? = inconclusive; / = no result given; [ ] = another dose, or the depositor's remark. Potency is the fitted concentration of half-maximal effect. A portion of the library; the hit share may differ from the screen's.

The line under a structure holds: TSHR ag | AID923
COC1C[C@@H](O[C@@H]2C(C)C(=O)OC(C)C(C)[C@H](OC(C)=O)C(C)C(=O)[C@@]3(CO3)CC(C)C(OC3OC(C)CC(N(C)C)[C@H]3OC(C)=O)C2C)OC(C)[C@@H]1OC(C)=O (stereo partly drawn)
    / | -0.1%
COC(=O)c1ccc(-c2ccco2)n1Cc1nc(-c2ccc(OC)c(OC)c2)oc1C
    / | -0.1%
COc1cccc(OCCCCCN2CCOCC2)c1
    / | 1.1%
O=C1[C@H]2[C@H]3[C@H](O)[C@H](O)C/C(=N/OC[C@@H](O)COCc4ccco4)[C@@H]3CC[C@@H]2C(=O)N1c1cccc(Oc2ccccc2)c1
    / | -2.2%[11.5 µM]
CCC(CCC(C)C1CCC2C3CC=C4CC(O)CC[C@@]4(C)C3CC[C@@]12C)C(C)C (stereo partly drawn)
    / | -0.9%
COC(=O)CCC(C)C1CCC2C3C(O)C[C@@H]4CC(O)CC[C@@]4(C)C3CC(O)[C@]12C (stereo partly drawn)
    / | -1.3%
CC(C)/C(O)=C1/C(=O)OC(c2ccoc2)[C@@]2(C)C(O)C(O)[C@@]34OC5(C)OC67CC(C)(C(O)[C@@]6(O)C(O)[C@@]3(O5)C12)C(CC(=O)O)[C@@]74C (stereo partly drawn)
    / | 0.1%
COc1cc2c(cc1O)C(Cc1ccc(O)cc1)[N+](C)(C)CC2 (stereo not drawn)
    / | -0.1%
CN1CCCC(n2nc(Cc3ccc(Cl)cc3)c3ccccc3c2=O)CC1 (stereo not drawn)
    / | -2.8%
O=C(Cc1ccc(Cl)cc1)c1c(O)cc(O)cc1O
    / | -2.0%
N#Cc1ccc2c(c1)N(CCCN1CCC(O)CC1)c1ccccc1S2
    / | 7.5%
CC12CCC3c4ccc(OCc5ccccc5)cc4CCC3C1CC(O)C2O (stereo not drawn)
    / | -0.4%
C/C=C(/C)C(=O)OC1C(OC(C)=O)[C@@]2(CO)C(O)C[C@@]3(C)C(=CCC4[C@@]5(C)CCC(OC6OC(C(=O)O)[C@@H](O[C@@H]7OC(CO)C(O)C(O)C7O)C(O)[C@H]6O[C@@H]6OC(CO)C(O)C(O)C6O)[C@](C)(CO)C5CC[C@@]43C)C2CC1(C)C (stereo partly drawn)
    / | 5.7%
CC1CC2C3CCC4=CC(=O)C=C[C@@]4(C)[C@]3(F)C(O)C[C@]2(C)[C@]1(O)C(=O)COP(=O)(O)O (stereo partly drawn)
    / | -0.7%
CCCCCC1C(=O)CCC1CC(=O)OC (stereo not drawn)
    / | -2.1%
COc1ccc(OC)c(C2C(C#N)=C(N)Oc3cc(N)ccc32)c1 (stereo not drawn)
    / | 5.0%
CCC(C(N)=O)c1ccccc1 (stereo not drawn)
    / | 0.5%
CC1CCC(C(C)C)[C@H](O)C1 (stereo partly drawn)
    / | -1.2%
O=C(/C=C/c1ccc2c(c1)OCO2)c1cccs1
    / | 16%
CS(=O)(=O)N(Cc1ccco1)CC(O)Cn1c2ccccc2c2ccccc21 (stereo not drawn)
    / | 0.7%

Additional records follow:
The line under a structure holds: TSHR ag | AID923
O=S(CC(O)COCc1ccc(Cl)cc1)c1ccccn1 (stereo not drawn)
    / | 0.3%
COc1cccc2c1CCC1=CC(=O)CC[C@@]12C
    / | -1.1%
CC(C)(O)C1CC[C@@]2(C)C3CCC4[C@@]5(C)CCCC(C)(C)C5C(O)C[C@]4(C)[C@]3(C)CC[C@@H]12 (stereo partly drawn)
    / | -0.9%
CC1(C)C[C@@H]2C(=O)CCC3O[C@@]3(C)CCC21 (stereo partly drawn)
    / | -1.2%
COC(=O)[C@@H]1C[C@@]2(O)[C@H](O)[C@H](O)[C@H](O)C[C@H]2N1CC1CC1
    / | 0.2%
Cc1ccc2oc(=O)c3c4cc(O)c(O)cc4oc3c2c1
    / | 8.5%
Cn1c(N)c(C(=O)COC(=O)c2cc(-c3ccco3)nc3ccccc23)c(=O)n(C)c1=O
    / | 19%
COC(=O)[C@H]1C[C@H]2CC[C@H](O)C[C@H]2N1Cc1c(F)cccc1Cl
    / | 1.7%
CC1(C)CCC2(C(=O)O)CC[C@]3(C)C(=CCC4[C@]5(C)CCC(O)C(C)(C)C5C(O)C[C@]43C)C2C1 (stereo partly drawn)
    / | -0.9%
CC1=C(C(=O)OCc2ccccc2)C(c2ccco2)C2=C(CC(C)(C)CC2=O)N1 (stereo not drawn)
    / | 8.4%
COc1cc2ccc(=O)oc2c(OC)c1OC
    / | 1.2%
CCOc1ccc(C(=O)c2ccc(OC)c(O)c2O)cc1
    / | -0.7%
CCC1=C2CC[C@H]3C(=O)N(c4ccccc4)C(=O)[C@H]3[C@H]2[C@@]2(C)C(=O)N(CC(=O)OC)C(=O)N2C1=O
    / | 10%
O=C(O)C1(O)CC(O)C(O)C(O)C1 (stereo not drawn)
    / | -2.3%
COC(=O)c1cccc(C23CC4(C2)[C@H](CN(CC2CCCCC2)[C@@H]4c2ccccc2)C3c2ccc(Cl)nc2)c1 (stereo partly drawn)
    / | -1.0%
c1ccc(C2CN3CCSC3=N2)cc1 (stereo not drawn)
    / | 0.3%
O=C1CSC(=O)N1CC(O)COc1ccc(Cl)cc1 (stereo not drawn)
    / | -2.1%
Cn1c(=O)[nH]c(=O)c2c1nc(CN1CCN(c3cccc(Cl)c3)CC1)n2Cc1ccccc1Cl
    / | -5.1%
CC(C)CC(N)C(=O)NC(C)C(=O)O (stereo not drawn)
    / | -0.8%
CC/C(=C(/CC)c1ccc(O)cc1)c1ccc(O)cc1
    / | -1.9%

(listing goes on)
The line under a structure holds: TSHR ag | AID923
CC(C)C[C@@H](CC(=O)N[C@@H](CCC(=O)O)CC(=O)O)NC(=O)[C@@H]1CCCC[C@H]1NC(=O)C[C@@H](NC(=O)C[C@H](Cc1ccccc1)NC(=O)[C@@H]1CCCC[C@H]1N)C(C)C
    7% | /
NCCC[C@@H](CC(=O)N[C@@H]1CCNC[C@H]1C(=O)N[C@H](CC(=O)N[C@@H](CCC(=O)O)CC(=O)O)Cc1c[nH]c2ccccc12)NC(=O)C[C@H](Cc1c[nH]c2ccccc12)NC(=O)[C@@H]1CCCC[C@H]1N
    13% | /
CC(C)C[C@@H](CC(=O)N[C@@H](CCC(=O)O)CC(=O)O)NC(=O)[C@@H]1CCCC[C@H]1NC(=O)C[C@@H](NC(=O)C[C@H](Cc1c[nH]c2ccccc12)NC(=O)[C@@H]1CNCC[C@H]1N)C(C)C
    4% | /
NCCC[C@@H](CC(=O)N[C@@H]1CCNC[C@H]1C(=O)N[C@H](CC(=O)N[C@@H](CCC(=O)O)CC(=O)O)Cc1c[nH]c2ccccc12)NC(=O)C[C@H](Cc1ccccc1)NC(=O)[C@@H]1CCCC[C@H]1N
    8% | /
CC(C)C[C@@H](CC(=O)N[C@@H](CCC(=O)O)CC(=O)O)NC(=O)[C@@H]1CCCC[C@H]1NC(=O)C[C@@H](NC(=O)C[C@H](Cc1c[nH]c2ccccc12)NC(=O)[C@@H]1CCCC[C@H]1N)C(C)C
    ? | /
CC(C)C[C@@H](CC(=O)N[C@@H](CCCN)CC(=O)N[C@@H]1CCNC[C@H]1C(=O)N[C@H](CC(=O)N[C@@H](CCC(=O)O)CC(=O)O)CC(C)C)NC(=O)[C@@H]1CCCC[C@H]1N
    5% | /
CC(C)[C@@H](CC(=O)N[C@@H]1CCNC[C@H]1C(=O)N[C@H](CC(=O)N[C@@H](CCC(=O)O)CC(=O)O)Cc1c[nH]c2ccccc12)NC(=O)C[C@H](Cc1ccccc1)NC(=O)[C@@H]1CCCC[C@H]1N
    11% | /
